Bioassay records: PubChem BioAssay, several laboratories
Mtb growth = M. tuberculosis H37Rv growth inhibitors, H37Rv strain (AID 1626). M. tuberculosis H37Rv growth inhibition; higher % means a stronger effect. one-dose inhibition, % at 10 µM; IC50 in µM for titrated hits. 0.95% of 220,000 active;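 active = confirmed in a dose series; inconclusive = inhibition above 80% but not taken into the dose series; inactive = below 80% or under 30% at every dose of the series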;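 also: bacteria incubated seven days before Alamar blue readout; 0% = bacteria only wells and 100% = bacteria with antibiotic wells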
Arbovirus inh = antivirals against arbovirus infection, primary screen, cell-based, full library, 10K replicate subset; arbovirus infection cell-based antiviral screen; inhibition, % at 10 µM; 0.37% of 200,000 active;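 active = inhibition from about 30%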;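 also: bluetongue infection of BSR cells; cell survival read as ATP light after 72 h; 0% = infected wells without compound and 100% = uninfected wells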
RecA intein inh = Mtb RecA intein splicing inhibitors, primary screen, biochemical, fluorescence, HTS | AID 2221, 2009 | 0.75% of 290,000 active | Protein RecA (Mycobacterium tuberculosis (strain ATCC 25618 / H37Rv)), P9WHJ3 | cell-free RecA intein splicing | inhibition, %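 (about 9 µM by stock and volumes)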; in the data active = inhibition above about 30%; inconclusive = no clear call, values can overlap the other calls;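 also: 0% = vehicle wells and 100% = reference inhibitor control wells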
Target sequence (P9WHJ3 whole entry, looked up): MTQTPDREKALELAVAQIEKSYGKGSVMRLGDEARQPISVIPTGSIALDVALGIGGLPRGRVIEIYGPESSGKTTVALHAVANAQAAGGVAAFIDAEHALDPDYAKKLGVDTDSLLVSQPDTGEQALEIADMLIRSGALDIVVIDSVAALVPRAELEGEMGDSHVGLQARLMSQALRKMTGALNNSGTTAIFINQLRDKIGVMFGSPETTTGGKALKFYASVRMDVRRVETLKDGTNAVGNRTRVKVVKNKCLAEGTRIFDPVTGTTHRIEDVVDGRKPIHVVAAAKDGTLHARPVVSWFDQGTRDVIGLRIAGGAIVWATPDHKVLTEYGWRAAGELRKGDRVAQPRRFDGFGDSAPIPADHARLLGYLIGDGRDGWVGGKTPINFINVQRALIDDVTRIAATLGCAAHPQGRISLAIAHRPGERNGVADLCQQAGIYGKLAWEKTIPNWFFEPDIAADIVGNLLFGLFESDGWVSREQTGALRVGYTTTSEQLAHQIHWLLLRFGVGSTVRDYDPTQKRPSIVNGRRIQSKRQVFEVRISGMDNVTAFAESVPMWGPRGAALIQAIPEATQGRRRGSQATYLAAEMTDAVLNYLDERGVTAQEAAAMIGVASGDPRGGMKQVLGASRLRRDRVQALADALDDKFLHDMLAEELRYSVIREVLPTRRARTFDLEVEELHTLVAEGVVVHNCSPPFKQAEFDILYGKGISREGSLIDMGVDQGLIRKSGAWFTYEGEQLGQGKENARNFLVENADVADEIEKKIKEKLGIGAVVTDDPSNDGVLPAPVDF
YopH PTP inh = YopH tyrosine phosphatase inhibitors, primary screen, biochemical, fluorescence Ex485/Em525. YopH tyrosine phosphatase [Yersinia enterocolitica]. inhibition, %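 (about 10 µM by stock and volumes)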. 0.16% of 140,000 active. AID 898, 2007;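 active = inhibition of 50% or more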;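 also: controls were vehicle for no effect and minimum signal wells for full effect; inactives centre near -20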
Mtb betalactam = beta-lactam sensitization of Mtb H37Rv, H37Rv. M. tuberculosis H37Rv growth with meropenem, percent inhibition; hits of this screen are not shown here. inhibition, % at 25 µM. 0.27% of 330,000 active. AID 434955, 2010;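 active = about 74% or more and at least 40 points above the plate without the antibiotic, then above 30% in a dose series; inconclusive = first-round hits that could not be retested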;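 also: growth measured after seven days incubation then overnight dye step; 0% = bacteria only wells and 100% = bacteria with antibiotic; twin plates without the antibiotic show which effects depend on it; some results filed as inactive read as strong as hits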
Arbovirus inh repeat = second read-out of Arbovirus inh, no call of its own (marks repeat the call); inhibition, %; measured here: 10K subset replicate screen; many hits read low in the repeat;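 first of two repeat runs on a subset; 0% = infected and 100% = uninfected wells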
An asterisk follows results filed as active; ? = inconclusive; / = not tested or not shown.

SMILES | Mtb growth | Arbovirus inh | RecA intein inh | YopH PTP inh | Mtb betalactam | others
CCC(C)NC(=O)c1ccccc1NC(=O)/C(=C/c1ccc(OC)cc1)c1ccccc1 (stereo unspecified) | -2.3% | -6.0 | 4.4 | -40.8 | -7.3
Cc1cc(C)nc(SCC(=O)Nc2ccc(Br)cn2)n1 | 0.2% | -1.0 | 1.1 | -38.6 | -12.6
Cc1ccc(C#N)c(SCCN2CCCCC2)n1 | / | / | -2.4 | / | 3.1
O=C1ON=C(c2ccccc2)/C1=C/c1ccco1 | 6.1% | -1.2 | 1.3 | / | 2.3
CCn1c(=O)n(CC)c2cc(NC(=O)c3ccccc3Cl)ccc21 | / | / | 0.5 | / | 4.4
COc1ccccc1N1CCN(C2CC(=O)N(c3ccccc3)C2=O)CC1 (stereo unspecified) | / | / | 0.0 | / | 3.5
Cc1cc(Oc2ccc(-c3ccccc3)cc2)nc(N2CCOCC2)n1 | 7.9% | 5.6 | 1.2 | 4.2 | -9.4
O=C(O)CCCCCCCCCC(=O)c1cccs1 | 2.5% | -13.7 | -6.1 | -26.4 | -1.8
CSc1cccc(CN2CCC(CO)(Cc3ccccc3)CC2)c1 | 0.6% | -14.6 | 4.0 | / | -11.1
COc1ccc(OC)c(NC(=O)C2CCCN(S(=O)(=O)c3cccc4nonc34)C2)c1 (stereo unspecified) | -6.5% | 5.4 | 0.1 | -2.0 | 2.8
Cc1cc2ccccc2n1CCNC(=O)Cc1ccccc1 | 7.9% | 2.0 | -3.2 | -22.2 | 2.7
Cc1ccnc(NC(c2ccsc2)c2ccc3ccc(C)nc3c2O)c1 (stereo unspecified) | 35.2% | -8.3 | -2.3 | / | 43.4
CCn1c(SCC(=O)NC2CC2)nnc1-c1ccc(F)cc1 | / | / | -2.4 | / | 0.3
COc1cc(S(=O)(=O)Nc2cccc(C(=O)O)c2)c(OC)cc1Cl | -6.5% | 15.1 | -3.6 | -37.5 | 2.6
Cn1cnc2cc(NCc3cccs3)ccc21 | / | -7.3 | / | / | 6.0
COc1ccc2c(c1)c(CC(=O)Nc1cccc(S(N)(=O)=O)c1)c(C)n2C(=O)c1ccc(Cl)cc1 | 20.9% | / | 0.8 | / | 61.1
NC1=NC(c2ccc(F)cc2)n2c(nc3ccccc32)N1 (stereo unspecified) | -7.9% | -8.0 | 4.4 | -41.8 | 5.4
COc1cc(Br)c(CN2CCCN(C)CC2)cc1OC | / | / | 1.2 | / | -1.1
CC(C)(C)NS(=O)(=O)c1ccc(NC(=O)CS(=O)(=O)Cc2ccccc2)cc1 | / | / | 4.0 | / | -17.5
COc1ccc(C2CC(=O)C3=C(C2)Nc2ncnn2C3c2ccccc2C)c(OC)c1 (stereo unspecified) | -4.2% | 9.2 | 7.8 | -48.4 | -4.8
CCN(c1ccccc1)S(=O)(=O)c1ccc(Cl)c(NC(=O)Nc2ccc(Cl)cc2C#N)c1 | 26.4% | -7.7 | 18.0 | -22.5 | 87.3
Cc1ccc(-c2csc3ncnc(SCC(=O)O)c23)cc1 | -11.4% | / | -1.2 | / | -3.7
O=C(Cn1c(=O)oc2cc(S(=O)(=O)N3CCCC3)ccc21)NC1CCCc2ccccc21 (stereo unspecified) | / | 13.9 | 2.9 | -30.1 | 1.3 | Arbovirus inh repeat=4.2
COc1ccccc1NC(=O)/C(=C\c1cccnc1)NC(=O)c1ccc(C)cc1 | / | / | -2.4 | / | -3.1

3 records picked at random from those above:
SMILES | Mtb growth | Arbovirus inh | RecA intein inh | YopH PTP inh | Mtb betalactam | others
CCN(c1ccccc1)S(=O)(=O)c1ccc(Cl)c(NC(=O)Nc2ccc(Cl)cc2C#N)c1 | 26.4% | -7.7 | 18.0 | -22.5 | 87.3
COc1cc(Br)c(CN2CCCN(C)CC2)cc1OC | / | / | 1.2 | / | -1.1
NC1=NC(c2ccc(F)cc2)n2c(nc3ccccc32)N1 (stereo unspecified) | -7.9% | -8.0 | 4.4 | -41.8 | 5.4

Next section.
SMILES | Mtb growth | Arbovirus inh | RecA intein inh | YopH PTP inh | Mtb betalactam | others
CCCc1ccc(-c2cc(C(=O)N/N=C/c3ccc([N+](=O)[O-])o3)c3ccccc3n2)cc1 | / | -24.0 | -0.2 | 6.1 | 99.9
Cc1ccc(NS(=O)(=O)c2ccc(-c3coc(C)n3)cc2)c(C)c1 | / | / | -2.4 | / | -2.0
CSCC[C@H](NC(=O)c1ccc2c(c1)OCO2)c1nnc2ccccn12 | / | / | -0.2 | / | 7.7
COC(=O)Nc1ccc(S(=O)(=O)NNC(=O)c2c(O)c3ccccc3n(C)c2=O)cc1 | / | / | -6.4 | / | 2.9
CS(=O)(=O)c1cccc(C(=O)NCc2ccc(F)cc2)c1 | 9.8% | 9.9 | / | 3.1 | -11.9
CN(Cc1ccccc1)S(=O)(=O)c1ccc2c(c1)n(C)c(=O)c(=O)n2C | 14.1% | / | -39.7 | / | -3.5
COc1ccc(C2=NN(C(=O)CSc3nc4ccccc4s3)C(c3ccc(F)cc3)C2)cc1 (stereo unspecified) | 2.6% | 8.1 | -0.3 | -25.8 | 6.3
Cc1csc(NC(=O)C(C)Oc2ccc(Br)cc2)n1 (stereo unspecified) | / | / | 6.2 | / | 3.1
CCCC(C)C(=O)Nc1nc(C)c(-c2csc(Nc3ccccc3OC)n2)s1 (stereo unspecified) | 5.2% | -19.8 | 9.7 | -7.7 | 12.3
O=C1CC(c2ccc(S(=O)(=O)N3CCCCC3)cc2)CN1 (stereo unspecified) | -6.8% | -2.0 | -1.3 | -31.8 | -0.9
CCOC(=O)NCc1ccc2[nH]c(C)cc2c1 | / | -3.6 | -7.3 | / | -0.6
CC1(C)CC(=O)C(C=NCCO)=C(O)C1 | 1.6% | 23.5 | 1.3 | 4.6 | -7.7 | Arbovirus inh repeat=7.4
CCOC(=O)C1CCN(C(=O)c2ccc(NC(=O)C3CCCO3)cc2)CC1 (stereo unspecified) | -3.4% | 1.7 | 1.7 | -31.8 | 0.2 | Arbovirus inh repeat=4.4
O=C(CCC(=O)N1CCOc2ccccc21)N1CCOCC1 | / | / | -3.4 | / | 3.5
Cc1cc(NC(=O)C(C)SCC(=O)OC(C)C(=O)Nc2ccc(F)cc2Cl)no1 (stereo unspecified) | / | / | -0.8 | / | 6.2
O=C1Cc2cc(S(=O)(=O)N3CCN(c4ccccc4)CC3)ccc2N1 | / | / | 0.6 | / | 6.7
COc1ccc(CN(C2CCCC2)S(=O)(=O)c2ccc(-n3cnnn3)c(OC)c2)cc1OC | -4.7% | 14.3 | 5.0 | -29.3 | 7.0
CC1(C)CC(=O)/C(=C\c2cccc([N+](=O)[O-])c2)C(C)(C)N1 | -1.7% | -6.8 | 0.5 | -42.6 | 13.3
C/C(CC(=O)Nc1ccccc1C#N)=N\NC(=O)c1ccncc1 | / | / | 1.8 | / | 98.0
CC(C)(Oc1ccc(Cl)cc1)C(=O)NCc1ccncc1 | 5.1% | 4.5 | 2.2 | -5.8 | -6.6
C=C(C)c1cccc(C(C)(C)NC(=O)Nc2nncs2)c1 | 2.8% | / | -0.5 | / | 2.6
CN1C(=O)c2ccccc2N(C)C1c1ccc(F)cc1 (stereo unspecified) | / | / | -20.0 | / | 2.3
CCc1cccc2c(SC(C)C(=O)NCC3CCCO3)nc(-c3ccccc3)nc12 (stereo unspecified) | -2.4% | -4.5 | 0.1 | -36.1 | -5.5
Cc1ccc2c(c1)c1c(n2C)-c2[nH]ncc2CC1 | -0.6% | -35.1 | / | -21.4 | 85.5

The closing 5 records of the section before come first, to join the parts.
SMILES | Mtb growth | Arbovirus inh | RecA intein inh | YopH PTP inh | Mtb betalactam | others
CC(C)(Oc1ccc(Cl)cc1)C(=O)NCc1ccncc1 | 5.1% | 4.5 | 2.2 | -5.8 | -6.6
C=C(C)c1cccc(C(C)(C)NC(=O)Nc2nncs2)c1 | 2.8% | / | -0.5 | / | 2.6
CN1C(=O)c2ccccc2N(C)C1c1ccc(F)cc1 (stereo unspecified) | / | / | -20.0 | / | 2.3
CCc1cccc2c(SC(C)C(=O)NCC3CCCO3)nc(-c3ccccc3)nc12 (stereo unspecified) | -2.4% | -4.5 | 0.1 | -36.1 | -5.5
Cc1ccc2c(c1)c1c(n2C)-c2[nH]ncc2CC1 | -0.6% | -35.1 | / | -21.4 | 85.5
CCOc1cc(C=O)cc(Br)c1OCC(=O)NCCc1ccccc1 | 3.4% | 3.7 | 8.8 | / | 7.2
CCOc1ccccc1NC(=O)c1cccc(NC(=O)c2ccco2)c1 | 10.2% | -22.1 | 0.0 | -27.9 | -1.2
c1ccc(-c2ccccc2OCCOCCN2CCOCC2)cc1 | / | / | 0.4 | / | -16.6
CCNC(=S)NNC(=O)c1csc(C(C)C)c1 | -6.4% | 0.4 | 5.2 | -29.8 | -7.0
CC(C)c1ccc(S(=O)(=O)N2CCN(C(=O)C3CC3C)CC2)cc1 (stereo unspecified) | / | / | 1.2 | / | 8.3
OCCNCc1cccc(Br)c1 | 3.8% | 5.0 | / | / | 4.0
COC(=O)C(NC(=O)CCc1nnc2ccc(N3CCCCC3)nn12)C(C)C (stereo unspecified) | / | / | -0.1 | / | 3.6
COCCCN(C(=O)Cn1ncc2c(=O)oc3ccc(C)cc3c21)C(C)c1ccncc1 (stereo unspecified) | 21.1% | 8.0 | -2.2 | -23.1 | -2.7 | Arbovirus inh repeat=-1.7
Cc1n[nH]c(C)c1CCNC(=O)C1CCC(=O)N(CCc2cccc(F)c2)C1 (stereo unspecified) | / | / | -0.1 | / | -1.7
COc1ccc(NC(=O)c2ccc3c(c2)C(=O)N(CC2CCCO2)C3=O)cc1O (stereo unspecified) | / | / | 0.5 | / | ?
CCCc1cc(=O)[nH]c(SCC(=O)Nc2ccccc2C#N)n1 | 1.3% | 5.1 | -1.5 | -3.2 | -6.2
NNC(=O)COc1ccc(C2SCCS2)cc1 | -3.6% | -0.8 | 1.0 | / | 0.7

Ordered by length of the SMILES (descending): some entries from above
SMILES | Mtb growth | Arbovirus inh | RecA intein inh | YopH PTP inh | Mtb betalactam | others
COc1ccc(NC(=O)c2ccc3c(c2)C(=O)N(CC2CCCO2)C3=O)cc1O (stereo unspecified) | / | / | 0.5 | / | ?
Cc1n[nH]c(C)c1CCNC(=O)C1CCC(=O)N(CCc2cccc(F)c2)C1 (stereo unspecified) | / | / | -0.1 | / | -1.7
CCNC(=S)NNC(=O)c1csc(C(C)C)c1 | -6.4% | 0.4 | 5.2 | -29.8 | -7.0
OCCNCc1cccc(Br)c1 | 3.8% | 5.0 | / | / | 4.0

More records:
SMILES | Mtb growth | Arbovirus inh | RecA intein inh | YopH PTP inh | Mtb betalactam | others
Cc1ccccc1C(=O)NNC(=O)c1ccncc1 | / | / | -1.5 | / | -5.5
Cc1ccc(Nc2nc(N)c([N+](=O)[O-])c(NCc3ccco3)n2)cc1C | 18.5% | -3.0 | -1.0 | -19.9 | 0.1
CCCC1(CCC)C(=O)NC(=Nc2ccc(C)cc2)NC1=O | 1.4% | 4.8 | 0.3 | / | -0.4
CCc1ccc(NC(=O)CCC(=O)Nc2nnc(C(C)C)s2)cc1 | / | / | 0.0 | / | 50.2
CSc1ccccc1NC(=O)Cc1ccccc1 | -7.0% | -18.9 | -1.5 | / | -2.2
Cc1cc(C)cc(C(=O)Nc2nnc(SCC(=O)N3CCCc4ccccc43)s2)c1 | -6.0% | -29.9 | 0.2 | -24.7 | 4.0
CO/N=C(\c1ccccc1)c1cccnc1 | / | / | -2.3 | / | -4.2
COC(=O)C1=C(c2ccc(S(C)(=O)=O)cc2)C[C@@H]2CC[C@H]1N2C(=O)N1CCC(O)CC1 | -9.0% | / | -1.3 | / | -6.7
COc1cc(C(=O)N2CCC(N3CCCCCC3)CC2)cc(OC)c1OC | 1.8% | / | -1.6 | -17.0 | -4.7
CSc1ccc(CNC(=O)C2CCC(=O)N(Cc3cccc(F)c3)C2)cc1 (stereo unspecified) | / | / | -0.5 | / | 4.1
O=C(Cc1ccccc1)N[C@@H](Cc1ccc(O)cc1)C(=O)O | -11.7% | / | 1.0 | / | /
COCCCn1c(SCC(=O)Nc2sc3c(c2C#N)CCCC3)nnc1-c1ccncc1 | 6.9% | -8.7 | / | -32.0 | 21.8
COc1ccc(CCNC(=O)c2nonc2N)cc1 | 4.0% | -2.2 | -0.6 | 39.9 | -2.0
Cc1ccc(NC(=O)CSc2ccc(-c3ccco3)nn2)cc1 | / | -0.1 | 1.0 | / | 2.1
CC(C)c1ccc(S(=O)(=O)/N=C2/C=CC(=O)c3ccccc32)cc1 | 4.7% | -7.1 | / | / | /
CCOC(=O)C1(CCc2ccccc2)CCN(C(C)CSC)CC1 (stereo unspecified) | / | / | -1.6 | / | 0.1

An excerpt; the hit share may differ from the screen's.
